Source: PubChem BioAssay (National Center for Advancing Translational Sciences (NCATS))
D2 ag: agonists of human D2 dopamine receptor (beta-arrestin); P14416; DiscoveRx PathHunter D2 beta-arrestin, luminescence, 90 min; 100% = 57 uM dopamine signal; activation, % (concentration not given with the values); 360,000 tested, 0.084% active; in the data active = activation above about 40%; inconclusive = about 15% to 40%; inactive = below about 15%; further: compound concentration not given in the record; the text of the record calls up to 30% inactive
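DiscoveRx PathHunter D2 beta-arrestin cells (2,100/well) attached overnight, then compound-stimulated 90 min at 37 C in HBSS/10 mM HEPES/0.1% Tween-20 buffer; beta-galactosidase complementation read by luminescence after 1 h at ambient temperature. Dopamine 57 uM final (EC100) as control.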
TRPML1 blocker: human mucolipin-1 channel inhibition | Q9GZU1 | TRPML1-inducible cells, Ca2+ dye fluorescence, FDSS; active compounds read low; inhibition of EC80 agonist-evoked calcium signal | activity change, negative = inhibition, % (no concentration beside the values) | 390,000 tested, 0.02% active | AID 624415; in the data active means activity change below about -50%; inconclusive means about -30% to -50%; inactive means above about -30%;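 further: stimulus is agonist 54-4 at its EC80 concentration; on the % scale 0 is the no-effect control and ±100 the full control effect; compound concentration not given in the record; the text of the record puts the active cut at -80%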
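Tet-induced TRPML1-DL cells loaded with Ca8 no-wash calcium dye were read kinetically on FDSS. Compound addition was followed by EC80 agonist 54-4 (4 uM final); inhibition was read over 110 s.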
PINK1 modulator: PINK1 expression modulation; 410,000 tested, 0.2% active; Potency, µM (top dose mostly 76.6 µM), without a hit: at the highest dose activation (PINK1 increase), hits mostly activators; PINK1 immunofluorescence, high-content cytometry, 24 h; active = well fitted activation curve with a large enough effect; inconclusive = small, poorly fitted or top-dose-only effect; inactive = flat fitted curve, though single readings scatter; cell line not stated here;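 further: potency means the concentration at half of the fitted maximal effect; % of control where 0% means no effect; nearly all actives have a fitted effect of over 65% in size; a mitochondrial uncoupler was the plate control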
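Cells are seeded, rested 12 hours, then given compound at five concentrations or DMSO for 24 hours. After fixation, blocking and antibody staining, PINK1 amount and mitochondrial localization are scored; CCCP serves as control.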
TRPML1 ag: agonists of human TRPML1 channel; activation, % (concentration not given with the values); TRPML1-expressing cells, Ca2+ dye fluorescence, FDSS; host cell line not named in the record; reference of the full effect not given here; 410,000 tested, 0.12% active; Q9GZU1; in the data active = activation above about 50%; inconclusive = about 30% to 50%; inactive = below about 30%; further: 0% is about no effect; the text of the record puts the active cut at 80%
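Tetracycline-induced TRPML1-DL cells are seeded and incubated overnight before loading with a no-wash Ca2+ dye and quencher. Agonist activity is taken from the 110 s fluorescence read following compound pin-transfer on an FDSS, before EC80 54-4 challenge.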
Six1-Eya2 blk: blocks human Six1 binding to Eya2. Q15475+O00167. AlphaScreen GST-Six1/His-Eya2 binding, biochemical; active compounds read low; control for the full effect not named in the record. activity change, % (concentration not given with the values). 360,000 tested, 0.56% active. AID 651725; in the data active = activity change below about -65%; inconclusive = about -30% to -65%; inactive = above about -30%; further: on the % scale 0 is the no-effect control and ±100 the full control effect
Target sequence (O00167 whole entry, looked up): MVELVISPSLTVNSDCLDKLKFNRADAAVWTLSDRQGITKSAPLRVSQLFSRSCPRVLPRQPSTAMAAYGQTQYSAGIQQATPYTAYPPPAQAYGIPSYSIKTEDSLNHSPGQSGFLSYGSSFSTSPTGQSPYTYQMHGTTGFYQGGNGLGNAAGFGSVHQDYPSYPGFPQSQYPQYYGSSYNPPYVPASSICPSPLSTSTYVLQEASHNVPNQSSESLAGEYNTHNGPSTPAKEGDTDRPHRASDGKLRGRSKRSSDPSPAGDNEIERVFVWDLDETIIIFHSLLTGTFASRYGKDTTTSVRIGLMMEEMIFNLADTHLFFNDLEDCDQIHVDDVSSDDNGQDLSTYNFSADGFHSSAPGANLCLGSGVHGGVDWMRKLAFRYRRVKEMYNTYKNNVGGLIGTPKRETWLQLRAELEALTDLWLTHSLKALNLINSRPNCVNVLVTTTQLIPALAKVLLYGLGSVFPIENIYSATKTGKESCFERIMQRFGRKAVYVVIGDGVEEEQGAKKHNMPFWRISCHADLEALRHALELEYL
Target sequence (Q15475 whole entry, looked up): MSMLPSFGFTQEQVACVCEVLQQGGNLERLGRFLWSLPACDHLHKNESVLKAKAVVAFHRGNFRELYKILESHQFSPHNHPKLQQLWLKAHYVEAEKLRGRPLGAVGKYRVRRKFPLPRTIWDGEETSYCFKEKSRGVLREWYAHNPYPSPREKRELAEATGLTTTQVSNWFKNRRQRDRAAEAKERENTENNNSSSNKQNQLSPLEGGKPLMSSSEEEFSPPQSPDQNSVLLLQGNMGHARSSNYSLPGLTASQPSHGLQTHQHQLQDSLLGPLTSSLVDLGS
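Six1/Eya2 binding was read as AlphaScreen signal after compounds were pinned into GST-Six1 plus His-tagged Eya2 (5X stock 250/500 nM) in pH 8.0 Tris/NaCl/TCEP buffer, beads added, then incubated 1 h, 37 C, dark.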
D2 potentiator: human D2 receptor positive allosteric modulation; potentiation, % (concentration not given with the values); 360,000 tested, 0.23% active; AID 624464; DiscoveRx D2 beta-arrestin cells, luminescence, 90 min; 100% = 57 uM dopamine signal; P14416; active = potentiation of 50% or more; inconclusive = 30% to 50%; inactive = 30% or less;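 further: compound concentration not given in the record; tested on top of an EC20 dose of dopamine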
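D2 cells co-treated with compound plus 50 nM dopamine (EC20) for 90 min at 37 deg C to detect potentiation. Beta-arrestin recruitment was read as enzyme-fragment luminescence after 1 h at ambient temperature. Full response was set by 57 uM dopamine.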
Starred values were filed as active, the others as inactive; u = inconclusive; x = not tested or not shown; & = joins results of further samples; [ ] = another dose, or the depositor's remark. Hits appear at their usual frequency. Share with any hit: about 1%.

SMILES	D2 ag	TRPML1 blocker	PINK1 modulator	TRPML1 ag	Six1-Eya2 blk	D2 potentiator
Cc1nnc(Nc2ccccc2F)s1	-1.0	-4	2.6%	0.7	0	2
O=C(CCN1C(=O)C2C3C=CC(C3)C2C1=O)NCCc1ccccc1Cl (configuration not stated)	-2.3	-4	0.4%	0.4	-14	-28
O=C(NC(=O)c1cccc(OC(F)(F)C(F)F)c1)OC1CCS(=O)(=O)C1 (configuration not stated)	-1.9	-9	-0.8%	-0.3	0	-2
CCCn1c(N)c(C(=O)CN(C)CC(=O)Nc2cccc(F)c2)c(=O)[nH]c1=O	-2.2	-1	-1.1%	0.2	-4	-4
CCOc1ccc(C(=O)/C=C/c2ccc(SC)cc2)cc1	-1.6	-2	2.3%[38.3 µM]	1.8	-2	2
CC(=O)c1c(NCCc2ccccc2)cc(C)oc1=O	-1.8	11	3.5%[38.3 µM]	3.1	-2	-7
O=C(CSc1ccccc1)Nc1nnc(COc2ccc(Cl)cc2)s1	-6.8	30	3.4%	-0.7	2	2
CCN(Cc1ccccc1)C(=O)CN1C(=O)COc2ccc(S(=O)(=O)N3CCCCCC3)cc21	-7.6	10&4	0.4%&0.4%	-0.5&-1.0	-1	-7
Cc1ccc(Nc2ccccc2N)cc1	4.0	19	2.0%	5.1	-18	-46
O=C(N[C@@H](Cc1c[nH]c2ccccc12)C(=O)O)C1CCN(S(=O)(=O)c2ccc(Cl)cc2)CC1	-5.3	-13	0.9%	-1.2	-17	-3
OCCNc1nc(NCc2ccccc2)c2ccccc2n1	-6.7	-2	2.5%	0.3	0	-16
CC(C)N(C(=O)[C@H]1C[C@H](CC(=O)NCCN2CCOCC2)C(=O)N2CCc3c([nH]c4cc(-c5ccco5)ccc34)[C@]12C)C(C)C	1.3	20	16%	0.0	-10	-9
CCC1(C)Cc2ccccc2-c2nc3n(c(=O)c21)CCCCC3 (configuration not stated)	-1.8	0	2.3%[38.3 µM]	1.7	-2	3
Cc1ccc(C)c(NC(=O)Cc2nc(CCl)cs2)c1	-4.5	2	-0.4%	-1.5	24	-24
Cc1nc(C)c(C(=O)NNS(=O)(=O)c2ccc3ccccc3c2)s1	0.7	81	0.6%	1.4	10	2
Cc1ccccc1Cn1cc(NC(=O)c2nn(C)cc2Cl)cn1	-1.0	5	-0.4%	0.3	-24	1
Oc1ccccc1N1CCN(C(=S)NCc2ccccc2)CC1	4.0	7	1.0%	-0.4	-7	-5
CC(=O)NCCNC(=O)c1ccc(-n2c(C)ccc2C)cc1	0.3	90	1.7%	-0.8	-3	0
CCn1nc(C)c(/C=N/NC(=S)Nc2ccc(Cl)cc2Cl)c1C	1.9	1	4.3%	0.2	-6	-8
CC(=O)c1ccc(NC(=O)CSc2ccc3nnc(CCNS(=O)(=O)c4ccc(C)cc4)n3n2)cc1	x	3	2.2%	-0.5	x	x
CCOc1cc(NC(=S)NCc2ccco2)c(OCC)cc1NC(=O)CC	1.9	1	6.6%	2.3	-3	-3
c1cncc(Nc2nc(-c3ccncc3)cs2)c1	0.6	-6	3.0%[38.3 µM]	0.1	-15	1
Cc1nnc(SCc2cc([N+](=O)[O-])cc3c2OCOC3)[nH]c1=O	-2.2	-8	1.5%	0.3	8	-2
CC1=C(C(=O)c2ccccc2)C(c2ccc(OC(F)F)cc2)NC(=S)N1 (configuration not stated)	-2.1	15	6.4%	0.1	-1	-9
CN(CC(=O)Nc1ccc(F)c(F)c1F)C(=O)c1ccc(N2CCCC2=O)cc1	1.0	2	2.7%	-0.4	-1	-5
(next part)
SMILES	D2 ag	TRPML1 blocker	PINK1 modulator	TRPML1 ag	Six1-Eya2 blk	D2 potentiator
CC(OC(=O)CC1CCCC1)C(=O)Nc1ccc(S(N)(=O)=O)cc1 (configuration not stated)	-1.8	12	-1.8%	0.0	-4	-11
Cc1ccc(-c2nc(Cl)nc3ccccc23)cc1	3.5	-3	2.1%	-0.1	22	-5
O=C(CCCOc1ccc(Cl)cc1)Nc1cccc(C(=O)O)c1	1.7	-14	-1.7%	0.6	3	-3
CCc1ccc([C@@H]2CC(=O)[C@@H]3CN(S(=O)(=O)c4ccc(C)cc4)[C@H](c4ccc(Cl)cc4)C[C@@H]3N2S(=O)(=O)c2ccc(C)cc2)cc1	-5.7	-5	1.6%	0.8	-5	-5
CCc1ccc(-c2cn3c(n2)sc2cc(C(=O)NCC(C)c4ccccc4)ccc23)cc1 (configuration not stated)	x	8	2.2%	-0.5	x	x
Cc1ccc(SCC(=O)Nc2ccc(N3CCOCC3)cc2)cc1	3.4	23	4.8%	-1.2	1	-1
Cc1ccc(C)c(-c2[nH]c3c(c2-c2c(-n4cccc4)n(C)c(=O)n(C)c2=O)c(=O)n(C)c(=O)n3C)c1	x	-13	0.9%	0.1	x	x
COC(=O)CC(NC(=O)Nc1ccc(C)cc1)c1cccc([N+](=O)[O-])c1 (configuration not stated)	-3.4	-4	-2.3%	0.0	8	-15
CC1CCCN(c2nc3ccccc3nc2C(C#N)S(=O)(=O)c2ccccc2)C1 (configuration not stated)	3.9	11	u	1.7	-1	21
COc1ccc(Cn2nnnc2C(C(C)C)N(Cc2ccco2)Cc2cccs2)cc1 (configuration not stated)	-5.1	9	1.1%	4.8	-7	19
Cc1ccc(OCC(=O)Nc2cccc(S(=O)(=O)N3CCCC3)c2)cc1C	-3.4	7	1.4%	0.0	-11	-14
CCOC(=O)CCCCCC(=O)Nc1ccc2c(c1)C(=O)N([C@@H](C)CO)C[C@H](C)[C@H](CN(C)C(=O)NC(C)C)OCCCC[C@H](C)O2	1.6	x	2.6%	x	-3	x
CC(=O)c1cccc(N(C(=O)c2ccccn2)C(C(=O)NC2CCCCC2)c2cccs2)c1 (configuration not stated)	-0.7	1	-0.8%[38.3 µM]	0.1	0	-6
CCCCN(C(=O)/C=C/c1ccco1)c1c(N)n(CCC)c(=O)[nH]c1=O	-2.0	-10	-1.1%	-1.1	4	-7
CCc1nnc(NS(=O)(=O)c2ccc(N=Cc3c(C)[nH]n(-c4ccc(C)cc4)c3=O)cc2)s1	0.7	-10	x	0.4	-29	6
O=C(Nc1cc(F)ccc1F)c1cnn2c(C(F)F)cc(-c3ccccc3)nc12	x	-10	0.1%	-0.3	x	x
CCCCN(Cc1ccccc1)C(=O)C1CCCN(S(=O)(=O)c2cnc[nH]2)C1 (configuration not stated)	-5.7	7	-1.2%	-0.3	3	-11
CC1(c2nnnn2-c2ccc3c(c2)OCCO3)CCC(=O)N1CCCn1ccnc1 (configuration not stated)	x	x	-0.1%	0.0	0	x
CC(=O)NCC(c1cccs1)S(=O)(=O)c1ccc(F)cc1 (configuration not stated)	-5.4	-7	-0.5%	-0.6	7	-4
Cc1ccc(C)c(OC(=O)c2cncc(Br)c2)c1	-3.6	21	0.2%	1.6	30	-1
Cc1cc(F)ccc1-c1cc(C(=O)N2CCN(c3ccncc3)CC2)[nH]n1	-4.4	x	2.4%	-0.2	-10	-17
CCOC(=O)C1=C(CC)Nc2ccccc2N=C1NC(=O)c1ccc(S(=O)(=O)N2CCOCC2)cc1	-3.8	30	7.8%	0.6	-8	3
Cc1c(NC(=O)CSc2nccn2C)c(=O)n(-c2ccccc2)n1C	-0.7	-2	5.6%[38.3 µM]	1.5	3	-10
Cn1c(=O)[nH]c2c(Cl)nccc21	-2.6	x	4.3%	x	3	-14
CN(CC(=O)NC(=O)NCc1ccco1)Cc1nc2ccccc2c(=O)[nH]1	-0.3	-2	6.8%[38.3 µM]	0.3	-14	-3

For reference, 15 of the compounds above:
SMILES	D2 ag	TRPML1 blocker	PINK1 modulator	TRPML1 ag	Six1-Eya2 blk	D2 potentiator
CC(OC(=O)CC1CCCC1)C(=O)Nc1ccc(S(N)(=O)=O)cc1 (configuration not stated)	-1.8	12	-1.8%	0.0	-4	-11
Cc1ccc(-c2nc(Cl)nc3ccccc23)cc1	3.5	-3	2.1%	-0.1	22	-5
O=C(CCCOc1ccc(Cl)cc1)Nc1cccc(C(=O)O)c1	1.7	-14	-1.7%	0.6	3	-3
CCc1ccc([C@@H]2CC(=O)[C@@H]3CN(S(=O)(=O)c4ccc(C)cc4)[C@H](c4ccc(Cl)cc4)C[C@@H]3N2S(=O)(=O)c2ccc(C)cc2)cc1	-5.7	-5	1.6%	0.8	-5	-5
CCc1ccc(-c2cn3c(n2)sc2cc(C(=O)NCC(C)c4ccccc4)ccc23)cc1 (configuration not stated)	x	8	2.2%	-0.5	x	x
Cc1ccc(SCC(=O)Nc2ccc(N3CCOCC3)cc2)cc1	3.4	23	4.8%	-1.2	1	-1
Cc1ccc(C)c(-c2[nH]c3c(c2-c2c(-n4cccc4)n(C)c(=O)n(C)c2=O)c(=O)n(C)c(=O)n3C)c1	x	-13	0.9%	0.1	x	x
COC(=O)CC(NC(=O)Nc1ccc(C)cc1)c1cccc([N+](=O)[O-])c1 (configuration not stated)	-3.4	-4	-2.3%	0.0	8	-15
CC1CCCN(c2nc3ccccc3nc2C(C#N)S(=O)(=O)c2ccccc2)C1 (configuration not stated)	3.9	11	u	1.7	-1	21
COc1ccc(Cn2nnnc2C(C(C)C)N(Cc2ccco2)Cc2cccs2)cc1 (configuration not stated)	-5.1	9	1.1%	4.8	-7	19
Cc1ccc(OCC(=O)Nc2cccc(S(=O)(=O)N3CCCC3)c2)cc1C	-3.4	7	1.4%	0.0	-11	-14
CCOC(=O)CCCCCC(=O)Nc1ccc2c(c1)C(=O)N([C@@H](C)CO)C[C@H](C)[C@H](CN(C)C(=O)NC(C)C)OCCCC[C@H](C)O2	1.6	x	2.6%	x	-3	x
CC(=O)c1cccc(N(C(=O)c2ccccn2)C(C(=O)NC2CCCCC2)c2cccs2)c1 (configuration not stated)	-0.7	1	-0.8%[38.3 µM]	0.1	0	-6
CCCCN(C(=O)/C=C/c1ccco1)c1c(N)n(CCC)c(=O)[nH]c1=O	-2.0	-10	-1.1%	-1.1	4	-7
CCc1nnc(NS(=O)(=O)c2ccc(N=Cc3c(C)[nH]n(-c4ccc(C)cc4)c3=O)cc2)s1	0.7	-10	x	0.4	-29	6

More compounds:
SMILES	D2 ag	TRPML1 blocker	PINK1 modulator	TRPML1 ag	Six1-Eya2 blk	D2 potentiator
Cc1cccc(NC(=S)NNC(=O)Cc2ccccc2)c1	-6.0	-6	0.4%	1.1	2	-31
O=C1NC[C@H](Cc2ccccc2)N(CC2CCN(CCC3CCCC3)CC2)C1=O	-1.0	22	-0.2%	-0.5	8	-15
Cc1cc(C)cc(NC(=O)CN(c2cc(C(F)(F)F)ccc2Cl)S(=O)(=O)c2ccccc2)c1	x	28	2.3%	-0.3	x	x
C=CCNc1ncnc2c1ncn2[C@H]1CN(Cc2ccco2)C[C@@H](CO)O1	-3.7	x	0.2%	0.2	0	3
CCOc1ccc2nc(N3CCC(C(=O)N4CCN(C5CCCCC5)CC4)CC3)sc2c1	-0.8	8	-4.1%	0.0	0	-6
O=C(NCCc1csc(-c2cccc(F)c2)n1)c1ccc(Br)o1	x	-23	0.4%	1.3	x	x
Fc1ccccc1CSc1nnc(Cn2cnc3ccccc32)n1-c1ccccc1	0.6	-18	-2.9%[38.3 µM]	0.7	2	-4
